Bead autofluor – compound fluorescence in toxin protease inhibitor counterscreen | compound autofluorescence counterscreen, microsphere flow cytometry; hits give high values | fluorescence intensity (test concentration not listed) | 360,000 tested, 3.1% active | AID 624483;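 active = at least 3 SD above the mean of all compounds, about 16000 in these data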;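 note: 100 nL of 1 mM stock went into each well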
BJeLR viability – kills HRASV12-expressing BJeLR cells; BJeLR (HRASV12) viability, CellTiter-Glo ATP luminescence, 48 h; reference of the scale not given here; inhibition, % (test concentration not listed); 300,000 tested, 0.17% active;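 active = replicate mean above 50%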;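 note: 50 nL library stock added to about 25 µL; numbers are from one replicate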
ugtP null kill – compounds lethal to S. aureus RN4220 ugtP deletion mutant | OD600 growth, 16 h; some inactives read as strong as hits | growth inhibition, % (test concentration not listed) | 330,000 tested, 0.54% active;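 active = z-score under -3 and OD600 up to 0.15 on both plates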;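 note: plate controls were untreated wells for no effect and antibiotic for full effect; wells of about 80 µL received 100 nL stock; the first replicate is given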
RN4220 kill – S. aureus RN4220 growth inhibition; OD600, 16 h; inhibition, % (concentration not given with the values); 330,000 tested, 0.33% active;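 active = z-score of -3 or lower and OD600 up to 0.18 on both plates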;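 note: plate controls were untreated cells for no effect and reference antibiotic for full effect; stock transfer was 100 nL into about 80 µL; one replicate is shown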
PrP UTR inh – inhibition of PrP 5' UTR reporter expression; cell-based PrP 5' UTR mRNA reporter, plate reader; inhibition, % (concentration not given with the values); 340,000 tested, 0.35% active;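 active = every replicate at 50% or more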;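 note: 0 = median of the neutral control wells; tested in H4 reporter cells; numbers are from one replicate; inactives centre near -14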
Mtb hypoxia inh – inhibitors of hypoxia-regulated fluorescent reporter in Mycobacterium tuberculosis | fluorescence inhibition, % (test concentration not listed) | 300,000 tested, 0.1% active | M. tuberculosis hypoxia-regulated fluorescent reporter, fluorescence;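 active = 35 to 45% if threefold the growth effect, above 45% if 1.5-fold the growth effect; inactive = the rest, general growth blockers included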;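 note: wells of about 50 µL received 100 nL stock; 0% = vehicle wells and 100% = reference inhibitor wells; whole bacteria with a GFP reporter of the hypoxia response; strong numbers were not always called active; many hits fall short of the cut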
Mtb hypoxia inh growth – also measured in Mtb hypoxia inh; calls as there; growth inhibition, %; measured here: M. tuberculosis growth (absorbance);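 0% = vehicle and 100% = reference antibiotic; read after six days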
* marks the source's active call; other numbers are inactive results; x = no result given.

1	Cn1cc(CNC(=O)C2CCC(=O)N(Cc3ccc(Cl)cc3)C2)cn1 (stereo not given)
2	O=C(CN1C(=O)/C(=C2\SC(=S)N(CCS(=O)(=O)O)C2=O)c2ccccc21)Nc1cccc(Br)c1
3	CC(C)(C)OC(=O)C[C@H]1C/C=C\C[C@@H](CC(=O)NCCO)C(=O)NC[C@H](c2ccccc2)OC1=O
4	CC1=CC2=NC(=O)CC(C)(C(=O)N(CC(=O)NC3CCCC3)c3ccccc3F)N2C=C1 (stereo not given)
5	O=C(NCc1ccco1)C(c1ccccc1F)N(CC1CCCO1)C(=O)Cn1nnc2ccccc21 (stereo not given)
6	COC1CCN(C(=O)C2CCC(=O)N(CCc3cccc(F)c3)C2)CC1 (stereo not given)
7	CC(=O)c1ccc(N(C(=O)Cc2c[nH]c3ccccc23)C(C(=O)NC2CCCCC2)c2cccs2)cc1 (stereo not given)
8	Cc1ccccc1N(CC(=O)NC1CCCCC1)C(=O)CCC(=O)Nc1nccs1

| compound no. | 1 | 2 | 3 | 4 | 5 | 6 | 7 | 8 |
| --- | --- | --- | --- | --- | --- | --- | --- | --- |
| Mtb hypoxia inh | 3 | 0 | -13 | x | x | -3 | 2 | 3 |
| Mtb hypoxia inh growth | -1 | -9 | 2 | x | x | -3 | 9 | 5 |
| Bead autofluor | 5660 | 4637 | 3437 | 3609 | 2768 | 4306 | 10281 | 3808 |
| BJeLR viability | -5 | -3 | x | -1 | -13 | 9 | -17 | -3 |
| PrP UTR inh | -13 | -8 | -23 | -14 | -20 | -19 | -35 | -35 |
| ugtP null kill | -1 | -10 | 1 | x | 7 | -2 | -19 | 3 |
| RN4220 kill | -1.2 | 2.1 | 4.6 | x | -2.9 | -0.1 | 1.4 | 4.4 |

9	O=C(Nc1ccccc1)c1cnc(-c2ccccc2)nc1-c1ccccc1
10	Cc1ccnc2nc(C(=O)OCC(=O)c3ccc(NC(=O)CC(C)C)cc3)nn12
11	COc1ccc(CCN2C(=O)CC(NNC(=O)c3ccc(F)cc3)C2=O)cc1OC (stereo not given)
12	O=C(NNC(=O)c1cc(-c2ccccc2)nc2ccccc12)c1csc(N2CCOCC2)n1
13	COc1ccc(N(C(=O)C(C)C)S(=O)(=O)c2ccc3ccccc3c2)cc1
14	CC(=O)N1N=C(c2cccc([N+](=O)[O-])c2)OC1c1ccc(Cl)cc1Cl (stereo not given)
15	C/C(=N\Nc1ccc([N+](=O)[O-])cc1)c1cccc(N)c1
16	CCCN1Cc2cccc(C(=O)Nc3ccc(S(=O)(=O)N4CCCCCC4)cc3)c2C1=O

| compound no. | 9 | 10 | 11 | 12 | 13 | 14 | 15 | 16 |
| --- | --- | --- | --- | --- | --- | --- | --- | --- |
| Mtb hypoxia inh | -2 | 16 | 6 | 4 | -9 | 4 | x | 5 |
| Mtb hypoxia inh growth | 6 | 8 | 7 | -7 | 9 | 10 | x | 7 |
| Bead autofluor | 10100 | 4153 | 10921 | 6089 | 4213 | 9516 | 12331 | 10564 |
| BJeLR viability | 5 | x | 1 | 4 | 3 | -9 | -2 | x |
| PrP UTR inh | -36 | -21 | -32 | -1 | -100 | -24 | -41 | -20 |
| ugtP null kill | 19 | 3 | 7 | 12 | 9 | -9 | x | 10 |
| RN4220 kill | 8.0 | 3.4 | -0.2 | 2.9 | -2.6 | 0.3 | x | 2.8 |

17	CC1=NN(C(N)=S)C(=O)C1N=Nc1cc(Cl)ccc1Cl (stereo not given)
18	NC(=O)NCC1CC1
19	Cc1ccnc2nc(C(=O)OCC(=O)N(Cc3ccccc3)C(C)C)nn12
20	Cc1ccc(S(=O)(=O)N2CC(C)N(C(=O)N3CCOCC3)C2C)cc1 (stereo not given)
21	COc1ccc(C(CNC(=O)c2cccc(S(=O)(=O)N3CCOCC3)c2)N2CCCC2)cc1 (stereo not given)
22	COc1ccc(CCNC(=O)c2c(O)c3ccccc3[nH]c2=O)cc1OC
23	COc1ccccc1NC(=S)N1CCC(c2nc3cc(C)c(C)cc3[nH]2)CC1
24	COc1ccc(CNC(=O)c2cc3c(=O)n4ccccc4nc3n(CC3CCCO3)c2=N)cc1 (stereo not given)

| compound no. | 17 | 18 | 19 | 20 | 21 | 22 | 23 | 24 |
| --- | --- | --- | --- | --- | --- | --- | --- | --- |
| Mtb hypoxia inh | 0 | 3 | 18 | -6 | 6 | 9 | 9 | -8 |
| Mtb hypoxia inh growth | 4 | -4 | 32 | 13 | 2 | 3 | 12 | 10 |
| Bead autofluor | 3597 | 4173 | 4059 | 5442 | 8558 | 3522 | 13034 | 8486 |
| BJeLR viability | 7 | 2 | x | -10 | x | 0 | -3 | 1 |
| PrP UTR inh | -6 | -14 | -5 | -19 | 8 | 0 | -19 | -27 |
| ugtP null kill | 0 | -3 | 2 | 0 | 10 | 3 | -2 | -5 |
| RN4220 kill | -1.5 | 4.1 | 2.2 | -3.4 | -0.7 | 0.7 | 5.7 | -2.9 |

25	COc1ccc(CCN(C(=O)c2ccco2)C(C(=O)NC2CCCC2)c2ccncc2)cc1OC (stereo not given)
26	Cc1cc(C(=O)c2ccccc2)c(NC(=O)CN2CCOCC2)s1
27	CC(C)Cn1cnc2c(SCCc3ccccc3)nc(N)nc21
28	COc1ccc(NC(=O)COc2cccc(-n3cnnn3)c2)cc1
29	COc1cc(NC(=S)NCc2ccco2)c(OC)cc1Cl
30	COC(=O)C1CCN(C(c2cc(OC)c(OC)c(OC)c2)c2sc3nc(C)nn3c2O)CC1 (stereo not given)
31	O=C1c2ccc(Cl)cc2S(=O)(=O)c2cccc(C(=O)N3CCN(c4ncc(Br)cn4)CC3)c21
32	O=C(Nc1nc(-c2cc(F)ccc2F)cs1)c1ccccn1

| compound no. | 25 | 26 | 27 | 28 | 29 | 30 | 31 | 32 |
| --- | --- | --- | --- | --- | --- | --- | --- | --- |
| Mtb hypoxia inh | 8 | -4 | -2 | 3 | 0 | 2 | 7 | 4 |
| Mtb hypoxia inh growth | -18 | 9 | 16 | -9 | 9 | 11 | 14 | 5 |
| Bead autofluor | 2067 | 2402 | 3683 | 2876 | 2425 | 6423 | 3975 | 4514 |
| BJeLR viability | 8 | 4 | x | -7 | -7 | -4 | x | -4 |
| PrP UTR inh | -28 | -20 | -20 | -9 | -16 | -11 | -28 | -37 |
| ugtP null kill | -1 | 0 | -5 | 6 | 1 | -1 | 5 | 0 |
| RN4220 kill | -0.5 | -0.6 | 4.9 | 5.6 | 2.1 | -13 | -5.7 | -3.3 |

33	CCc1cccc(NC(=O)C2CCN(S(=O)(=O)c3ccc4[nH]c(=O)ccc4c3)CC2)c1
34	Cc1cc(NC(=O)COC(=O)c2ccc(S(=O)(=O)N3CCCC3)cc2)no1
35	Cc1ccc(-c2ccc(CCC(=O)O)n2CC(=O)O)cc1
36	CC1CCN(Cc2c(C(=O)N/N=C/c3cc(Cl)ccc3O)nnn2-c2nonc2N)CC1
37	CCCS(=O)(=O)N1CCCC(C(=O)NCCCN2CCN(c3ccccc3F)CC2)C1 (stereo not given)
38	CN(C)c1ccc(/C=N/NC(=O)CCCCCNC(=O)c2ccccc2)cc1
39	Cc1oc2cc(O)ccc2c(=O)c1-c1nncn1-c1ccccc1
40	CC(Sc1nncn1C)C(=O)Nc1ccccc1-c1ccccc1 (stereo not given)

| compound no. | 33 | 34 | 35 | 36 | 37 | 38 | 39 | 40 |
| --- | --- | --- | --- | --- | --- | --- | --- | --- |
| Mtb hypoxia inh | -3 | 4 | 3 | x | 10 | x | -2 | -6 |
| Mtb hypoxia inh growth | 5 | -1 | 5 | x | 7 | x | 10 | -2 |
| Bead autofluor | 6294 | 4212 | 9249 | 4258 | 3506 | 5365 | 3460 | 6990 |
| BJeLR viability | 6 | 1 | -1 | 13 | -7 | 7 | -7 | 1 |
| PrP UTR inh | -6 | -32 | -9 | 42 | -11 | -24 | -6 | -19 |
| ugtP null kill | 4 | 2 | 5 | x | 6 | x | 1 | 6 |
| RN4220 kill | 11 | 3.8 | 8.3 | x | 6.1 | x | -0.2 | 8.1 |

41	C#CCOCCOCCOCCNc1nc(N2CCN(C(=O)C(CCCCN)n3cc(C(N)CO)nn3)CC2)nc(N2CCN(C(=O)C(Cc3ccc(O)cc3)n3cc(C(N)C(C)CC)nn3)CC2)n1 (stereo not given)
42	C=C1CC(C)OC(c2ccccc2OCC(O)CN2CCCCC2)C1 (stereo not given)
43	CC(C)NC(=O)C1CCN(C2CCN(CC3CC=CCC3)CC2)CC1 (stereo not given)
44	CCOc1cc(-c2sc(Nc3ccc(CC)cc3)n[n+]2-c2ccccc2)ccc1OC
45	Brc1ccc(-c2csc(N3CCCCCC3)n2)cc1
46	CCOC(=O)c1c(NC(=O)C(Sc2ccccc2)c2ccccc2)sc(C(N)=O)c1C (stereo not given)
47	Brc1ccc(-c2ccc(CNCc3ccccn3)o2)cc1
48	NC(=O)CSc1nnc(CSc2ncccn2)n1-c1ccccc1

| compound no. | 41 | 42 | 43 | 44 | 45 | 46 | 47 | 48 |
| --- | --- | --- | --- | --- | --- | --- | --- | --- |
| Mtb hypoxia inh | 13 | 11 | 4 | 13 | -2 | 6 | 7 | 12 |
| Mtb hypoxia inh growth | 23 | 8 | -3 | 15 | 8 | 7 | 2 | 4 |
| Bead autofluor | x | 21660* | 3043 | 3869 | 3702 | 23438* | 3512 | 2392 |
| BJeLR viability | x | -6 | -5 | x | 15 | -5 | 1 | 2 |
| PrP UTR inh | x | -18 | -10 | -15 | -18 | -2 | -9 | -15 |
| ugtP null kill | 2 | -7 | 7 | 5 | 77 | -11 | 6 | 2 |
| RN4220 kill | 7.5 | 6.7 | 6.7 | -2.6 | -8.7 | 12 | 0.2 | 3.1 |

49	COc1cccc(NC(=O)Cc2nnc(SCC(=O)NC3CCCCC3)n2C)c1
50	CCOCCCNC(=O)CN1N=C(c2ccc(C)cc2)CCC1=O
51	O=[N+]([O-])c1ccc(/C=N/NC(=S)Nc2ccccc2F)o1
52	CC1CCC(NC(=O)CN(C)S(=O)(=O)c2cnc[nH]2)CC1 (stereo not given)
53	COc1ccc(C(=O)Nc2nc3ccc(OC)cc3s2)cc1
54	O=C(Nc1ccc(F)c(Cl)c1)C1CC2CCC1C2 (stereo not given)
55	CC1CCC2C(=O)N(c3cc(Cl)ccc3OC(=O)c3ccco3)C(=O)C2C1 (stereo not given)
56	Cc1c(NC(=O)c2ccc3c(c2)OCO3)cccc1-c1nc2ncccc2o1

| compound no. | 49 | 50 | 51 | 52 | 53 | 54 | 55 | 56 |
| --- | --- | --- | --- | --- | --- | --- | --- | --- |
| Mtb hypoxia inh | -3 | 2 | x | -3 | -4 | 19 | -6 | -2 |
| Mtb hypoxia inh growth | -4 | 0 | x | 8 | 2 | 14 | 7 | 7 |
| Bead autofluor | 3025 | 3187 | 2119 | 4321 | 2389 | 5149 | 5585 | 5200 |
| BJeLR viability | 0 | 0 | -9 | 9 | -2 | -7 | -5 | 14 |
| PrP UTR inh | -3 | -10 | -16 | -31 | -31 | -38 | -12 | -10 |
| ugtP null kill | -7 | 1 | x | -8 | -10 | -17 | 5 | 3 |
| RN4220 kill | -5.0 | 3.3 | x | -1.4 | 2.1 | -14 | 2.8 | 3.6 |

Among those listed so far, 8 have a Cl atom:
1	Cn1cc(CNC(=O)C2CCC(=O)N(Cc3ccc(Cl)cc3)C2)cn1 (stereo not given)
14	CC(=O)N1N=C(c2cccc([N+](=O)[O-])c2)OC1c1ccc(Cl)cc1Cl (stereo not given)
17	CC1=NN(C(N)=S)C(=O)C1N=Nc1cc(Cl)ccc1Cl (stereo not given)
29	COc1cc(NC(=S)NCc2ccco2)c(OC)cc1Cl
31	O=C1c2ccc(Cl)cc2S(=O)(=O)c2cccc(C(=O)N3CCN(c4ncc(Br)cn4)CC3)c21
36	CC1CCN(Cc2c(C(=O)N/N=C/c3cc(Cl)ccc3O)nnn2-c2nonc2N)CC1
54	O=C(Nc1ccc(F)c(Cl)c1)C1CC2CCC1C2 (stereo not given)
55	CC1CCC2C(=O)N(c3cc(Cl)ccc3OC(=O)c3ccco3)C(=O)C2C1 (stereo not given)

| compound no. | 1 | 14 | 17 | 29 | 31 | 36 | 54 | 55 |
| --- | --- | --- | --- | --- | --- | --- | --- | --- |
| Mtb hypoxia inh | 3 | 4 | 0 | 0 | 7 | x | 19 | -6 |
| Mtb hypoxia inh growth | -1 | 10 | 4 | 9 | 14 | x | 14 | 7 |
| Bead autofluor | 5660 | 9516 | 3597 | 2425 | 3975 | 4258 | 5149 | 5585 |
| BJeLR viability | -5 | -9 | 7 | -7 | x | 13 | -7 | -5 |
| PrP UTR inh | -13 | -24 | -6 | -16 | -28 | 42 | -38 | -12 |
| ugtP null kill | -1 | -9 | 0 | 1 | 5 | x | -17 | 5 |
| RN4220 kill | -1.2 | 0.3 | -1.5 | 2.1 | -5.7 | x | -14 | 2.8 |
